# Rango dissoc inh = prevents RanGTP from dissociating the Rango-importin beta complex. O95149+P62826. 340,000 compounds, 0.071% hits. Potency, µM (doses to about 46.1 µM), without a hit: at the highest dose activity change, negative = inhibition. AID 540253. Biochemical FRET Rango-importin beta, RanGTP-induced dissociation; active means falling FRET ratio curve, often poorly fitted, with flat reads before Ran was added; inconclusive means other falling curves, or compound fluorescence or quenching; inactive means flat or rising ratio curve;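 further: potency means the concentration at half of the fitted maximal effect; % of control where 0% means no effect; nearly all actives have a fitted effect of over 45% in size; -100% = wells without RanGTP and RCC1; the record marks most hits as doubtful in a second field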
#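 Rango FRET biosensor (snurportin-1 IBB flanked by N-terminal EYFP and C-terminal CFP10) at 0.1 uM, with 0.25 uM importin beta in PBS, 1mM DTT, 0.02% Tween-20, 0.1% BSA. 0.6 uM Ran, 2mM GTP and 0.2 uM RCC1 were then added for 45 min at room temperature. Inhibition read as loss of FRET rise.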
# miR-21 FLuc = raises the signal of a miR-21 reporter. HeLa miR-21 FLuc reporter, luciferase, 48 h. Potency, µM (series often up to 38.3 µM), for inactives: at the highest dose reporter change, positive = more light. 340,000 tested, under 10 active; active = well fitted rising curve with a large enough effect; inconclusive = small, poorly fitted or top-dose-only effect; inactive = no such curve, though single readings can be large or run the other way;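 further: % of control where 0% means no effect; miR-21 action dims this reporter so a rising signal means less miR-21 action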
#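 HeLa cells endogenously expressing miR-21, stably carrying CMV-driven firefly luciferase with a downstream miR-21 binding site, 2000 cells/well. Titrations up to approximately 40 uM, 48 hours; luciferase luminescence read.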
# Rango complex inh = inhibitors of Rango-importin beta complex formation; Q14974; Rango CFP/YFP FRET sensor + importin beta, 45 min; Potency, µM (doses to about 92.2 µM), for the others: top-dose inhibition of complex formation; 340,000 compounds, 0.031% hits; active = rising FRET ratio curve, often small or poorly fitted; inconclusive = mostly compound fluorescence or quenching in the first reads; inactive = flat curves in all reads;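 further: potency means the concentration at half of the fitted maximal effect; 0% = DMSO wells and 100% = buffer wells lacking importin beta; nearly all actives have a fitted effect of over 15% in size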
#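 FRET biosensor Rango (snurportin 1 IBB between N-terminal EYFP and C-terminal Cerulean), 50 nM in PBS/1 mM DTT/0.02% Tween-20/0.1% BSA, preincubated 5 min RT with compound; 0.125 microM importin beta added, 45 min RT, CFP/YFP FRET ratio read.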
# GLA inh pH 4.5 = blocks human alpha-galactosidase A at pH 4.5; purified enzyme, 4-MU-alpha-Gal fluorescence, pH 4.5; activity change, negative = inhibition, % at 105 µM; 230,000 tested, under 10 active; inconclusive = small, poorly fitted or top-dose-only inhibition, or a rising curve; inactive = flat fitted curve, though single readings scatter; no compound was filed as active;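 further: 0% = full activity with enzyme and -100% = basal without enzyme; dose as in the result columns while the protocol names 77 µM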
# Target sequence (P06280 whole entry, looked up): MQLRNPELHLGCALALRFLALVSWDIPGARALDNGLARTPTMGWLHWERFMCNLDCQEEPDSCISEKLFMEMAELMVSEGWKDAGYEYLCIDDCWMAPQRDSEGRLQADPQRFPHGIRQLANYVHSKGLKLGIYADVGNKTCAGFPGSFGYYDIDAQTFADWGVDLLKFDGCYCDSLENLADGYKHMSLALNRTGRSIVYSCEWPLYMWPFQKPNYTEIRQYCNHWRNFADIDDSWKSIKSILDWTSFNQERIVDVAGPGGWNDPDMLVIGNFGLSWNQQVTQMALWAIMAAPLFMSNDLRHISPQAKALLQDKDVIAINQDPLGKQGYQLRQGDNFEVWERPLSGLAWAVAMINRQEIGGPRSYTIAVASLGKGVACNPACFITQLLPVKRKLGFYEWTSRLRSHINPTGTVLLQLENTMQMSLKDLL
# * = called active by the depositor; ? = inconclusive; nt = no result given; & = joins results of further samples. Some of the compounds tested, so the mix of outcomes need not match the whole.
SMILES,Rango dissoc inh,miR-21 FLuc,Rango complex inh,GLA inh pH 4.5
CSc1ccc(CN(C)C(=O)c2ccc(S(=O)(=O)Nc3c(C)n(C)n(-c4ccccc4)c3=O)cc2)cc1,6%,nt,0.6%,nt
O=C(NNC(=O)C1CC(c2cccs2)=NO1)Nc1ccc(Cl)cc1 (stereo not drawn),0%,3%,-0.3%,nt
COc1ccc(N=CC2=C(O)c3ccccc3C2=O)cc1,9%,-33%,5.3%,-2
O=C(CN1C(=O)NC2(CCCc3ccccc32)C1=O)N1CCCCC1 (stereo not drawn),-1%,nt,0.2%,nt
CSc1ccccc1NC(=O)N1CCC(CO)(CC2CCCCO2)CC1 (stereo not drawn),0%,1%,-0.2%,0
O=C(COC(=O)/C=C/c1ccc(F)cc1)Nc1nnc(-c2ccccc2)o1,-9%,nt,-4.0%,nt
CCCCN(C(=O)CCCc1nc2ccccc2c(=O)[nH]1)c1c(N)n(CCCC)c(=O)[nH]c1=O,11%,0%,-2.2%,nt
CCCCCNC(=O)CSC1=N/C(=C\c2ccc(Cl)c(Cl)c2)C(=O)N1CC,19%,-3%,0.3%,1
Cc1cccc(C)c1NC(=O)CN(C)CC(=O)Nc1sc2c(c1C(N)=O)CCC2,0%,nt,0.5%,nt
COc1ccccc1N1CCN(CC(=O)c2c(N)n(C)c(=O)n(C)c2=O)CC1,12%,-1%,6.3%,-1
CCS(=O)(=O)Nc1cccc(-c2cn3c(n2)SCC3)c1,6%,-9%,-0.4%,nt
Cc1ccc(S(=O)(=O)N2CCN(C(=O)COC(=O)CNC(=O)c3ccccc3)CC2)c(C)c1,0%,nt,0.5%,nt
CC(NS(=O)(=O)/C=C/c1ccccc1)C(=O)O (stereo not drawn),22%,-2%,-1.1%,11
Cc1noc(C)c1C(=O)N1CCCC(C(=O)c2cccc(OC(C)C)c2)C1 (stereo not drawn),-18%,3%,1.7%,-5
O=S(=O)(Nc1cccc(S(=O)(=O)N2CCCCC2)c1)c1ccc(Cl)s1,-9%,nt,?,nt
Cc1ccc(Cn2c(SCCN3CCOCC3)nc3c2c(=O)n(C)c(=O)n3C)cc1,12%,-23%,-3.6%,9
Cc1c(Br)c([N+](=O)[O-])nn1CC(=O)N1CCc2ccccc2C1,-4%,0%,-5.1%,-10
Cc1cc(C)nc(/N=C(/NC(=O)Nc2cccc(Cl)c2)Nc2ccccc2)n1,-3%,-3%,0.4%,-26
CC1CCN(C(=O)CCCOc2ccc(Cl)cc2)CC1,9%,-52%,4.4%,1
CC(=O)c1cccc(OCc2cc(C(=O)N3CCSCC3)no2)c1,-13%,-49%,0.2%,nt
CCCCC(=O)Nc1cccc(-c2nc3ncccc3o2)c1C,16%,-17%&-20%,2.3%,nt
Cc1ccc(S(=O)(=O)N2CCN(C(=O)CN3C(=O)NC4(CCOc5ccccc54)C3=O)CC2)cc1 (stereo not drawn),-1%,-2%,?,-3
CN(C)CCn1c(C(=O)Nc2ccccc2)cc2ccccc21,-8%,13%,0.8%,1
CC(C)C(=O)N1N=C2CCCCC2C1(O)C(F)(F)F (stereo not drawn),-9%,-1%,-2.9%,6
COC(=O)c1cnn(-c2nc(OC)cc(OC)n2)c1C,8%,-2%,2.6%,-13

# Going on with the list.
SMILES,Rango dissoc inh,miR-21 FLuc,Rango complex inh,GLA inh pH 4.5
Cc1c(C(=O)O)nnn1-c1ccccc1,-13%,-10%,1.7%,0
CC1CN(C2CCN(C(=O)c3ccccc3)CC2)CC(C)O1 (stereo not drawn),13%,-2%,-2.8%,-9
CN1N=C2c3ccccc3CCCC2C1c1ccc(F)cc1 (stereo not drawn),4%,-44%,-0.3%,0
O=C(NNC(=O)C1CCCO1)c1ccccc1Cl (stereo not drawn),-1%,2%,-2.6%,9
CC1CCCC(C)N1C(=O)COC(=O)Cc1c[nH]c2ccccc12 (stereo not drawn),1%,nt,2.1%,nt
Cc1cccc(-n2cnc(C(=O)NNC(=S)Nc3ccc(Cl)cc3)c2)n1,-5%,29%,-2.2%,4
COc1ccc(C(CC(=O)O)NC(=O)c2ccco2)cc1OC (stereo not drawn),-6%,0%,0.9%,8
O=C(Nc1c(C(=O)Nc2ccc3c(c2)OCCO3)cnn1-c1ccccc1Cl)c1ccco1,7%,-24%,3.8%,-7
COc1cccc(C(=O)Nc2nnc(C(C)C)s2)c1,-7%,-28%,-5.0%,-6
CC(C)c1ccc(C(=O)N2CCN(c3cnn(C)c(=O)c3Cl)CC2)cc1,?,-12%,?,5
CCN(CC(=O)Nc1c(F)cccc1F)C(=O)CSC(=S)N1CCCC1,-20%,nt,?,nt
COc1cc(C(=O)c2ccccc2Cl)c([N+](=O)[O-])cc1OC,21%,-6%,-0.2%,0
Cn1ncc([N+](=O)[O-])c1C(=O)NC1CCCCC1,2%,-2%,-0.1%,nt
O=C1CCCC(=O)C1CS(=O)(=O)c1ccccc1,9%,1%,?,6
O=C(COc1ccccc1)Nc1ncc2c(n1)CCCC2=O,0%,-5%,3.0%,0
COc1ccc(Nc2nc3c(C)cccc3cc2C#N)c(OC)c1,5%,-2%,?,2
CSc1ccc(OC2CCN(Cc3ccccc3)CC2)cc1,-4%,-7%,0.8%,-9
CCOC(=O)/C=c1/s/c(=C/c2ccc3cc(OC)ccc3c2)c(=O)n1CC(=O)NCC1CCCO1 (stereo not drawn),?,nt,?,nt
Nc1c(N(CCO)C(=O)/C=C/c2ccco2)c(=O)[nH]c(=O)n1Cc1ccccc1,-11%,-2%,-4.3%,3
COc1ccc(NC(=O)c2cccc(N3C(=O)C4C5C=CC(C6CC56)C4C3=O)c2)c(OC)c1 (stereo not drawn),2%,16%,-0.1%,nt
O=c1cc(CN2CCN(C/C=C/c3ccccc3)CC2)c2cc(O)c(-c3ccccc3)cc2o1,-14%,-4%,-0.1%,-10
COc1cc(/C=C/c2cc(OC(C)=O)c3ccccc3n2)c(OC(C)=O)c([N+](=O)[O-])c1,-7%,0%,4.8%,-3
O=C(O)Cc1ccc2ccc3ccccc3c2c1,-4%,nt,-0.6%,nt
Cc1noc(C)c1COc1cccc(C(=O)Nc2ccc3c(c2)OCO3)c1,-16%,-16%,-1.7%,-2
COc1cc(CCC(=O)OCC(=O)Nc2ccc(C(N)=O)cc2)cc(OC)c1OC,5%,0%,5.4%,6

# Reprinted at random: four compounds from above.
SMILES,Rango dissoc inh,miR-21 FLuc,Rango complex inh,GLA inh pH 4.5
CC(C)c1ccc(C(=O)N2CCN(c3cnn(C)c(=O)c3Cl)CC2)cc1,?,-12%,?,5
CC1CCCC(C)N1C(=O)COC(=O)Cc1c[nH]c2ccccc12 (stereo not drawn),1%,nt,2.1%,nt
CC1CN(C2CCN(C(=O)c3ccccc3)CC2)CC(C)O1 (stereo not drawn),13%,-2%,-2.8%,-9
COc1ccc(NC(=O)c2cccc(N3C(=O)C4C5C=CC(C6CC56)C4C3=O)c2)c(OC)c1 (stereo not drawn),2%,16%,-0.1%,nt

# (continued)
SMILES,Rango dissoc inh,miR-21 FLuc,Rango complex inh,GLA inh pH 4.5
COc1cc(OC)cc(C(=O)n2nc(C)cc2C)c1,-4%,2%,?,-1
O=C(CN1CCN(S(=O)(=O)c2ccc(F)cc2)CC1)Nc1ccc2c(c1)OCO2,-5%,-7%,9.2%,-19
CCCc1cc(=O)oc2cc(OCC(=O)Nc3ccc(S(N)(=O)=O)cc3)ccc12,-5%,-1%,-5.5%,nt
CCOC(=O)c1cc(-c2ccccc2)n(CC(=O)O)c1C,9%,-1%,4.6%,-2
O=C(CN1CCCCC1)Nc1ccc(NC(=O)c2ccc(Cl)cc2)cc1Cl,-9%,-2%,-3.2%,3
COc1ccc(NC(=O)COC(=O)CNC(=O)C2CCCCC2)cc1OC,3%,nt,-0.2%,nt
Cc1ccc(S(=O)(=O)N2CCCCC2)cc1NC(=O)COC(=O)c1c(F)cccc1F,1%,5%,-2.9%,-2
O=C(CCc1nnc(-c2ccc3c(c2)OCO3)o1)NC(c1ccccn1)C(F)(F)F (stereo not drawn),-1%,-40%,18%,-3
C=C(C)C(=O)Nc1cccnc1Oc1ccc(F)cc1F,-1%,-2%,-0.7%,-6
Cc1ccc(N(C)S(=O)(=O)c2cccc(C(=O)Nc3nc4ccccc4[nH]3)c2)cc1,-11%,23%,0.2%,-4
COc1ccccc1N1CCN(C(=O)c2noc(C(C)C)c2[N+](=O)[O-])CC1,16%,4%,-2.8%,nt
Cc1ccccc1N1CCN(C(=O)c2ccccc2NC(=O)C2CC=CCC2C(=O)O)CC1 (stereo not drawn),-8%,3%,5.0%,3
CC(NC(=O)c1ccc(Br)cc1)c1ccccc1 (stereo not drawn),1%,-11%,-4.6%,-6
COc1ccc(CNC(=O)Cn2nc(C(F)(F)F)c(Br)c2C)cc1,-4%,-8%,-1.6%,nt
CCOc1ccc(Cc2nnc(SCC(=O)c3ccc(OC)cc3)o2)cc1,-9%,11%,0.6%,0
Cc1ccc(NC(=O)CN(c2ccc(Cl)cc2)S(=O)(=O)c2cc([N+](=O)[O-])ccc2Cl)c(C)c1,0%,1%,-0.5%,-5
COc1ccc(C(=O)NNC(=O)C(=O)NC(C)c2ccccc2)cc1OC (stereo not drawn),-14%,0%,-0.4%,5
N#Cc1sc(NCc2cccc(Cl)c2)nc1Cl,-2%,-10%,3.7%,nt
c1ccc(-c2nc(SCc3nc4ccccc4[nH]3)c3oc4ccccc4c3n2)cc1,7%,nt,?,nt
Cc1c(C(N)=O)sc2ncn(CC(=O)N3CCC(C)CC3)c(=O)c12,10%,-7%,0.6%,2
Cn1c(=O)c2cc(NCc3ccccc3)nnc2n(C)c1=O,?,8%,?,-16
CC1CCC(C(C)C)C(OC(=O)Cn2c(-c3ccc(Cl)cc3)[n+](C)c3ccccc32)C1 (stereo not drawn),27%,?,5.5%,0
Cc1noc(NS(=O)(=O)c2ccc(NC(=O)CCn3c(=O)oc4ccccc43)cc2)c1C,18%,-9%,0.5%,6
CCN(C[C@H]1N[C@@](C)(C(=O)OC)[C@H]2C(=O)N(C)C(=O)[C@@H]12)C(=O)c1ccc(C(C)(C)C)cc1,-9%,nt,-0.1%,nt
Cc1cccc(C)c1NC(=O)CN(C)C(=O)c1cccc(S(=O)(=O)N2CCN(c3ccc(F)cc3)CC2)c1,-9%,nt,-4.4%,nt

# (more compounds)
SMILES,Rango dissoc inh,miR-21 FLuc,Rango complex inh,GLA inh pH 4.5
O=C(c1ccco1)N1CCN(C(=O)c2ccccc2NS(=O)(=O)c2ccc(F)cc2)CC1,-14%,-2%,-1.4%,-2
Cc1ccc(C(=O)N(Cc2cccnc2)Cc2cc3cc(C)ccc3n3nnnc23)cc1,7%,-1%,0.0%,-9
COc1cc(C(=O)N2CCN(c3ccccc3Cl)CC2)ccc1OCC(=O)N1CCOCC1,0%,nt,4.4%,nt
CCCn1c(SCC(=O)Nc2cc(S(=O)(=O)N3CCCCC3)ccc2C)n[nH]c1=O,-1%,nt,-0.2%,nt
COc1ccc(-c2nc(SC(C)C(=O)c3c(N)n(C)c(=O)n(C)c3=O)n[nH]2)cc1 (stereo not drawn),0%,nt,-1.4%,nt
Cc1ccc(C)n1-c1ccc(C(=O)NCC2CCCO2)cc1 (stereo not drawn),-15%,-8%,-6.3%,-1
COc1c(C=O)c(CCN(C)C(=O)c2ccc(F)cc2)cc2c1OCO2,22%,-6%,0.5%,-5
Cc1ccc(S(=O)(=O)N2CCOCC2)cc1C(=O)NC1CCCCC1,-13%,-5%,-1.8%,-5
CCCCCCCNC(=O)C1(CC2CC(c3ccc(Cl)cc3)=NO2)CCN(C(=O)C2(C)CC2)CC1 (stereo not drawn),11%,6%,-4.9%,nt
O=C(CSc1nnnn1C1CCCCC1)Nc1ccc2c(c1)OCO2,1%,-4%,0.8%,-1
CCC(C(=O)NCc1ccco1)n1nc(-c2ccc(OC)cc2)ccc1=O (stereo not drawn),-1%,-16%,-0.6%,0

# Grouped by structure: those above with a CF3 group (three)
SMILES,Rango dissoc inh,miR-21 FLuc,Rango complex inh,GLA inh pH 4.5
CC(C)C(=O)N1N=C2CCCCC2C1(O)C(F)(F)F (stereo not drawn),-9%,-1%,-2.9%,6
O=C(CCc1nnc(-c2ccc3c(c2)OCO3)o1)NC(c1ccccn1)C(F)(F)F (stereo not drawn),-1%,-40%,18%,-3
COc1ccc(CNC(=O)Cn2nc(C(F)(F)F)c(Br)c2C)cc1,-4%,-8%,-1.6%,nt
